Assay outcomes as filed in PubChem BioAssay.
Hsc70 ATP site = Hsc70 inhibitors, probe displacement, primary screen, biochemical, fluorescence polarization (AID 568) | Hsc70 fluorescence polarization, probe displacement; higher % means a stronger effect; strong numbers were not always called active | displacement, % at 20 µM; hits with a dose series show IC50 in µM | 83,000 tested, under 10 active;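 active means displacement above 50% without optical interference and an IC50 on retest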;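 further: ATPase domain with a fluorescein-tagged ATP probe; 0% = vehicle and 100% = excess ADP; read after one hour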
MT1-MMP promoter = inhibitors of MT1-MMP promoter transcription, cell-based, luciferase reporter, luminescence (AID 618); calls from a first round at 10 µM; hits with a dose series show EC50 in µM; MT1-MMP promoter luciferase reporter cells, luminescence; actives 0.62% (n = 87,000);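 active means over half of the reporter light lost at 10 µM or EC50 under 50 µM; inactive means the rest and hits that failed the dose series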;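 further: actives suppress MT1-MMP promoter-driven transcription so potencies describe inhibitors; HT1080 fibrosarcoma cells; overnight exposure; toxic or luciferase-blocking compounds were not removed from the actives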
WNV protease inh = inhibitors of West Nile virus NS2B-NS3 protease | z-score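 (tested at a level between 10 and 100 µM)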 | actives 0.18% (n = 65,000) | WNV NS2B-NS3 protease, fluorogenic substrate Ex360/Em465; hits give low values | P06935 | AID 577;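 active means z-score at -3 or under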;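 further: score is relative to mean and spread of the compound wells of a plate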
Target sequence (P06935 1371-1501 limits assumed): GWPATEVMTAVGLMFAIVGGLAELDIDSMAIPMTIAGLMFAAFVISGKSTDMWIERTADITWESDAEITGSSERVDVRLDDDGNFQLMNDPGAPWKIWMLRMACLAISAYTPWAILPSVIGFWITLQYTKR
Target sequence (P06935 1502-1679 limits assumed): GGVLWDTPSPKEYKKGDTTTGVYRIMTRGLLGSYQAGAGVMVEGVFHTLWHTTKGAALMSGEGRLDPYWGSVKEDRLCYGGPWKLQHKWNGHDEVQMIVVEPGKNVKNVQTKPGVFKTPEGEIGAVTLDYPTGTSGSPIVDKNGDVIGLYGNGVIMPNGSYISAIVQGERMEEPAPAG
Numbers without * were called inactive; i = inactive; . = no result given.

SMILES	Hsc70 ATP site	MT1-MMP promoter	WNV protease inh
CCOCc1nnc(NC(=O)CSCc2ccccc2)s1	1.3%	i	-1
CC(C)(C)C(=O)NC1CCN(S(=O)(=O)c2cccc(C(F)(F)F)c2)CC1	-9.5%	i	-0.36
COc1cc(C(=O)Nc2cccc(-c3nc4cc(C)cc(C)c4o3)c2)cc(OC)c1OC	-4.7%	i	-0.71
COCCNC(=O)CN1C(=O)CSc2cc(S(=O)(=O)N3CCCCCC3)ccc21	-1.9%	i	1
N#Cc1c(/N=C/c2ccccc2)oc(-c2ccccc2)c1-c1ccccc1	-1.6%	i	.
COC(=O)c1c(NC(=O)CSc2nnnn2C)sc(C)c1C	-0.1%	i	0.02
CSc1nnc(NC(=O)c2cc3ccccc3oc2=O)s1	-1.8%	i	0.87
COc1ccc(Cc2nnc(N)s2)cc1OC	3.9%	i	.
O=C(O)CCCNS(=O)(=O)c1ccc(Br)s1	10%	i	-0.45
COc1ccc(C)cc1S(=O)(=O)NC1CCCC1	0.7%	i	-0.73
COc1ccccc1-c1nc(-c2ccncc2)no1	-2.0%	i	1.3
O=c1ccccn1Cc1c(Cl)cccc1Cl	-1.2%	i	.
Cn1cnc2c1c(=O)[nH]c(=O)n2C	2.0%	i	0.91
CCNC(=O)N1C(=O)C2(OCCO2)c2cc(Br)ccc21	1.3%	i	1.3
N=c1ccn(Cc2ccc(Cl)c(Cl)c2)cc1	-0.6%	i	-0.91
COC(=O)C1CCN(C(=O)c2ccc(SC)cc2OC)CC1	-0.4%	i	0.35
Cc1cc(Nc2ccccc2)nn1C(=O)c1ccccc1	-1.3%	i	-1.2
COc1ccccc1NC(=O)CN1CCC(n2nnc3cc(F)ccc32)CC1	2.5%	i	0.49
O=C(O)c1ccc(COCC(F)(F)C(F)F)o1	0.0%	i	-0.29
Cc1csc(-c2cnn(-c3ccccc3)c2NC(=O)c2cccc(F)c2)n1	-2.7%	i	.
C1CCC(CNc2c3c(nc4nnnn24)CCCC3)CC1	1.4%	i	0.33
COC(=O)c1ccc2c(c1)SC1=C(CCCC1=O)N2	15%	i	-0.6
O=C(NCC(=O)N(c1ccccc1)C(C(=O)NC1CCCCC1)c1ccncc1)c1ccco1 (stereo not given)	3.1%	i	-0.1
O=C(NCCN1CCN(c2ccccc2)CC1)c1cccc(Br)c1	-0.1%	i	0.26
CCOCC(=O)Nc1nc2ccc(OC)cc2s1	2.7%	i	-0.48
Cc1ccc(NC2SC(=O)N(CC(=O)O)C2=O)cc1 (stereo not given)	-1.3%	i	.
O=C(NCCN1CCCC1)c1ccc(Cn2c(=S)[nH]c3cc4c(cc3c2=O)OCO4)cc1	0.1%	i	1.7
O=C(CCCOc1ccccc1)Nc1ccc2c(c1)OCCO2	-1.9%	i	-0.27
CCN(CCCNC(=O)CCn1c(=O)[nH]c2ccccc2c1=O)c1cccc(C)c1	6.6%	i	2
COc1ccc(-n2nc3cc(C)c(NC(=O)CC(C)C)cc3n2)cc1	-2.2%	i	0.25
COc1ccc2c(c1)c1nnc(SCC(=O)N3CCCCC3C)nc1n2C (stereo not given)	-1.4%	i	-1.3
COc1ccc(OC)c(S(=O)(=O)NC(C)(C)C)c1	-3.3%	i	.
Cn1cnnc1SCc1ccc(C(=O)n2ncc(C#N)c2N)cc1	-1.7%	i	-1.4
O=S1(=O)CC(O)C(NCc2cccnc2)C1 (stereo not given)	-0.7%	i	-1
O=C(NCC1CCCCC1)C1CCN(C(=O)NC2CCCCC2)CC1	0.0%	i	-0.45
Cc1ccc(S(=O)(=O)N(CCC#N)CCN2CCCC2)cc1	-4.7%	i	0.25
O=C(CN1CCOCC1)Nc1c(-c2ccccc2)c2cc(Br)ccc2[nH]c1=O	-0.7%	i	-0.74
CC1Oc2ccccc2N(CC(=O)N2CCc3ccccc32)C1=O (stereo not given)	-1.8%	i	1.4
CC(=O)N1CCc2cc(C(=O)CN3CCCCC3)ccc21	6.6%	i	1.7
COc1ccc2cc(-c3nc4ccccc4n3C)c(=O)oc2c1	1.1%	i	.

Molecules above that have a thiophene ring, fused or not, in the order listed:
SMILES	Hsc70 ATP site	MT1-MMP promoter	WNV protease inh
COC(=O)c1c(NC(=O)CSc2nnnn2C)sc(C)c1C	-0.1%	i	0.02
O=C(O)CCCNS(=O)(=O)c1ccc(Br)s1	10%	i	-0.45

Later entries.
SMILES	Hsc70 ATP site	MT1-MMP promoter	WNV protease inh
CNC(=O)C1CC(=O)N(c2ccc(F)c(Cl)c2)C1 (stereo not given)	4.7%	i	0.06
O=C(Nn1cc(C(=O)N2CCN(c3ccccc3F)CC2)c2ccccc2c1=O)c1cnccn1	7.6%	i	2
CCCN(c1ccc(C(C)C)cc1)S(=O)(=O)c1c(C)[nH]c(=O)[nH]c1=O	2.0%	i	-0.75
Cn1c(NC(=O)c2ccccc2F)cc(=O)n(C)c1=O	1.6%	i	1.2
CCOC(=O)C(Cc1ccccc1)C(=O)Nc1nccs1 (stereo not given)	-2.7%	i	-1.1
NC(=O)CSc1nc(-c2ccccc2)c(-c2ccccc2)o1	-2.7%	i	.
CC(C)CCNC(=O)C(c1ccco1)N(C(=O)Cn1nnc2ccccc21)c1ccc2c(c1)OCO2 (stereo not given)	-6.7%	i	-0.19
O=C(Nc1cc(C(F)(F)F)ccc1N1CCCC1)c1cccnc1	-1.9%	i	-0.06
CCOc1ccc(-c2nnn(CC(=O)Nc3cccc(OC)c3)n2)cc1OCC	2.1%	i	-1.1
Cc1nc(C)n(CC(O)COc2ccc3ccccc3c2)n1 (stereo not given)	7.1%	i	-0.35
CCn1cnc2c1c(=O)n(CC(=O)Nc1ccc3c(c1)OC(F)(F)O3)c(=O)n2Cc1ccccc1	-3.1%	i	.
CCCOC(=O)c1ccc(Oc2cn[nH]c2-c2ccc(OC)cc2O)cc1	5.0%	i	0.82
CCCCCSc1nnc2c(n1)OC(C)N(C(C)=O)c1ccccc1-2 (stereo not given)	-2.2%	i	-1
CC(NC(=O)Nc1ccccn1)N1C(=O)C2C3C=CC(C3)C2C1=O (stereo not given)	0.5%	i	-1.1
O=C(COC(=O)C1(c2ccccc2F)CCCC1)NC1CCS(=O)(=O)C1 (stereo not given)	-1.1%	i	-0.27
CC(Oc1ccc(Cl)cc1Cl)C(=O)NCCCN1CCOCC1 (stereo not given)	-1.3%	i	-0.72
O=C(C(c1ccccc1)c1ccccc1)N1CCC(c2nc(-c3ccccc3Cl)no2)CC1	0.7%	i	.
CCOC(=O)Cc1cc(=O)[nH]c(/N=C(\N)Nc2ccc(C)cc2C)n1	4.6%	i	.
Cc1cc2c(c(=O)o1)C(C13C=CC(CC1)C3)C(C#N)=C(N)O2 (stereo not given)	-0.9%	i	1.2
CCCc1cc2c(c(NC(C)=O)n1)c(=O)oc1ccccc12	3.5%	i	1.5
O=C1c2ccccc2C(=O)N1Cc1nn2c(-c3ccc(Cl)cc3)nnc2s1	4.1%	i	-0.6
O=C(Nc1ccccc1)NC1CCS(=O)(=O)C1 (stereo not given)	-3.2%	i	.
CC1(C)CC2(CCO1)N1CC3(C)CN2CC(C)(C1)C3O (stereo not given)	-3.1%	i	0.99
COc1ccc(-c2nnn(CC(=O)NCc3ccccc3)n2)cc1OC	0.3%	i	.
O=C1CC(c2ccco2)CC(O)=C1C=Nc1ccc(Br)cc1 (stereo not given)	-6.9%	i	.
CC(=O)CSc1nc2ccccc2s1	-2.2%	i	.
CS(=O)(=O)NC1c2cccc3cccc(c23)C1N1CCOCC1 (stereo not given)	16%	i	0.93
CCCn1c(NC(=O)c2ccc(Br)cc2)nc2ccccc21	0.5%	i	.
CCCc1nnc(NC(=O)CCC(=O)NCc2ccccc2OC)s1	4.6%	i	.
CC1CCCCC1NC(=O)c1ccc(S(=O)(=O)NCc2ccco2)cc1 (stereo not given)	4.3%	i	-0.75
COc1ccc(C(=O)CSc2nnc(-c3ccoc3C)n2CC2CCCO2)cc1 (stereo not given)	-0.7%	i	-0.54
O=S(=O)(c1ccccc1)N1CCC(N2CCN(c3ccccc3)CC2)CC1	-8.0%	i	0.27
Nc1nnnn1CC(=O)OCc1cccc(Br)c1	-2.6%	i	-1.7
Cc1cccc(OCC(=O)N(Cc2cccs2)C2CCS(=O)(=O)C2)c1 (stereo not given)	-0.5%	i	-0.97
O=C(OCN1C(=O)c2ccccc2C1=O)c1ccc2c(=O)n3c(nc2c1)CCC3	-0.8%	i	-0.78
Cc1ccc2nc(NCCO)nc(-c3ccccc3)c2c1	5.9%	i	-0.0031
COCCCN1C(=O)C(O)=C(C(=O)c2ccco2)C1c1cccc(Br)c1 (stereo not given)	7.2%	i	0.45
CCCC(=O)Nc1ccc(S(=O)(=O)N2CCOCC2)cc1	-0.3%	i	.
CC(=O)c1cccc(NC(=O)N2CCCC2C(=O)Nc2cccc(C)c2C)c1 (stereo not given)	-1.3%	i	-0.07
CCc1nn(CC(=O)NCCCN2CCCC2=O)c(=O)c2cc3sccc3n12	3.3%	i	0.58

Whole records, quoted from the list. Screens in order: Hsc70 ATP site, MT1-MMP promoter, WNV protease inh
CC(=O)c1cccc(NC(=O)N2CCCC2C(=O)Nc2cccc(C)c2C)c1 (stereo not given) is listed with -1.3%, i, -0.07
O=S(=O)(c1ccccc1)N1CCC(N2CCN(c3ccccc3)CC2)CC1 is listed with -8.0%, i, 0.27

(next part)
SMILES	Hsc70 ATP site	MT1-MMP promoter	WNV protease inh
O=C(Cc1cccs1)N(Cc1cccs1)C1(C(=O)NC2CCCC2)CCCCC1	2.6%	i	.
COC(=O)Nc1ncc(CN2C(=O)c3ccccc3C2=O)s1	4.9%	i	0.74
COc1ccc(N(C(=O)c2ccc(Cl)cc2)C2=CC3CCC(C2)N3C)cc1 (stereo not given)	-4.1%	i	.
O=C(NCc1ccccn1)C1CC(c2ccc(Cl)c(Cl)c2)=NO1 (stereo not given)	6.0%	i	.
COc1ccc2c(c1)CCc1sc(NC(=O)c3ccc(C)cc3)nc1-2	-3.1%	i	.
COC1=C(OC)c2ccccc2C(C(=O)O)N/C1=C(/C)Nc1ccncc1 (stereo not given)	1.3%	i	1.3
CC(=O)c1c(C)[nH]c(C(=O)CSc2nnc(C3CCCCC3)n2N)c1C	1.8%	i	-0.03
O=C(NS(=O)(=O)c1ccc(NC(=O)C2CCCO2)cc1)c1ccccc1 (stereo not given)	3.8%	i	-0.74
Cc1cccn2c(=O)c3cc(C#N)c(=NC(=O)c4ccncc4)n(CCCOC(C)C)c3nc12	21%	i	2.9
C=C(C)Cn1c(N2CCCC2)nc2c1c(=O)[nH]c(=O)n2C	-7.0%	i	-1.3

Structural class, the entries above with a cyano group.
SMILES	Hsc70 ATP site	MT1-MMP promoter	WNV protease inh
N#Cc1c(/N=C/c2ccccc2)oc(-c2ccccc2)c1-c1ccccc1	-1.6%	i	.
Cn1cnnc1SCc1ccc(C(=O)n2ncc(C#N)c2N)cc1	-1.7%	i	-1.4
Cc1ccc(S(=O)(=O)N(CCC#N)CCN2CCCC2)cc1	-4.7%	i	0.25
Cc1cc2c(c(=O)o1)C(C13C=CC(CC1)C3)C(C#N)=C(N)O2 (stereo not given)	-0.9%	i	1.2
Cc1cccn2c(=O)c3cc(C#N)c(=NC(=O)c4ccncc4)n(CCCOC(C)C)c3nc12	21%	i	2.9

More compounds:
SMILES	Hsc70 ATP site	MT1-MMP promoter	WNV protease inh
CC(=O)Nc1cc(C(=O)N2CCCC2)ccc1S(=O)(=O)c1ccc(C)cc1	-3.7%	i	-0.01
O=C(O)c1ccc(NC(=O)C2CC=CCC2C(=O)O)cc1 (stereo not given)	0.0%	i	-1.4
COc1ccc(C(c2nnnn2C(C)(C)C)N2CCN(C)CC2)cc1OC (stereo not given)	1.8%	i	-0.82
CCc1c(C)nc(SCCOc2ccc(OC(C)C)cc2)[nH]c1=O	1.4%	i	0.55
O=C(NC1CCCCCC1)c1nnc(Cc2ccc(Cl)cc2)o1	1.2%	i	-0.37
CC1(C)Cc2c(C#N)c(N3CCN(C(=O)c4ccco4)CC3)nc(Cc3ccccc3)c2CO1	2.2%	i	-0.95
COc1ccc(N2C(=O)CCC(C(=O)Nc3cccc(C)n3)C2c2ccc(OC)c(OC)c2)cc1 (stereo not given)	3.1%	i	-1.6
COc1ccc(-c2noc(CCC(=O)Nc3ccc(C)c(C)c3)n2)cc1	-7.9%	i	-0.92
Cc1ccc2oc(=O)c3cnn(CC(=O)NCCCOC(C)C)c3c2c1	5.9%	i	-2.1
CO/N=C(\C(=O)N[C@@H]1C(=O)N2C(C(=O)O)=C(COC(N)=O)CS[C@H]12)c1ccco1	-6.7%	i	-1.4
O=C1C=C(c2ccccc2)C(O)(c2ccccc2)C1 (stereo not given)	-0.6%	i	0.15
CN(C)c1ccc(NC(=O)CSc2nc(N)c(C(=O)Nc3ccc(N(C)C)cc3)s2)cc1	6.0%	i	.
COc1ccc(C(=O)Nc2ccc(S(=O)(=O)Nc3nccnc3OC)cc2)cc1OC	5.5%	i	0.19
Cc1ccc(-n2ncc(C(=O)NCc3ccc4c(c3)OCO4)c2NC(=O)c2ccco2)cc1C	0.0%	i	0.25
O=C(NCc1cccnc1)C1c2ccccc2C(=O)N1Cc1ccco1 (stereo not given)	9.5%	i	0.36
CCN(CC)C(=O)Nc1c(C)n(C)n(-c2ccccc2)c1=O	0.4%	i	.

Not all compounds are listed; the hit share may differ from the screen's.
